Assay outcomes: PubChem, PCMD
Calb biofilm kill: mixtures killing C. albicans biofilm | C. albicans biofilm persisters + clotrimazole, fluorescence viability; primary screen in compound mixtures of four per well | inhibition, % at 7.6 µM | hit rate 0.02% among 120,000;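 active = inhibition above 30.3% in the primary screen of four-compound pools, then above 30% when the compound was retested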;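 also: compounds exposed to preformed 24 h biofilms for 48 h; the number belongs to the whole pool; some results filed as inactive read as strong as hits; inactives centre near 12; 0% = biofilm with clotrimazole alone and 100% = kill control; retested singly at about 60 µM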
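Test system: C. albicans biofilms. Buffer or medium: RPMI/MOPS medium, pH 7.0. Timing: 48 h compound exposure at 37 °C. Technique: Alamar Blue fluorescence. Evaluation: percent inhibition of biofilm viability.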
The depositor's hits bear a star.

SMILES	Calb biofilm kill
C/C=C(\C)C(=O)NCCN1C2=NC[C@H](Cc3ccc(O)cc3)N2C[C@@H]1Cc1ccc(OC)cc1	12
Cn1cc(/C=C(\C#N)C(=O)Nc2cccc([N+](=O)[O-])c2)c2ccccc21	10
CN(C)c1oc(/C=C/c2ccccc2)nc1C#N	11
COc1ccccc1NC(=O)NCCN1CCNC1=O	19
O=C(CCC1CCCN(Cc2cccc(Cl)c2)C1)NCc1ccccc1F (stereo not drawn)	24
O=C(O)CNC(=O)c1ccccc1Br	15
CCCNC(=O)N1CCCC(C(N)=O)C1 (stereo not drawn)	16
COc1ccc(CNC(=O)CN(c2cccc([N+](=O)[O-])c2)S(C)(=O)=O)cc1	4
O=C(Nn1c(-c2ccccc2)nc2ccccc2c1=O)c1ccc([N+](=O)[O-])cc1	-1
Cc1ccccc1NC(=S)NCc1ccc2[nH]c3c(c2c1)CCCC3	16
CC(Sc1nc(-c2ccccc2)cc(C(F)(F)F)n1)C(=O)Nc1ccc2c(c1)OCO2 (stereo not drawn)	-4
CCc1n[nH]c(=S)n1/N=C/c1cc(OC)cc([N+](=O)[O-])c1O	9
COCCNC(=O)C(=O)N/N=C/c1cccs1	-1
CC(C)N1C(=O)/C(=C\c2nc3ccccc3c(=O)[nH]2)c2ccccc21	-6
COc1ccc(-n2c(C)cc(C)c(C(C)=O)c2=S)cc1	20
COc1ccccc1N1CCN(C(=O)c2ccc(CSc3ccccc3)cc2)CC1	7
Cc1cccc(C)c1N1C(=O)CC(N2CCSCC2)C1=O (stereo not drawn)	27
CC(=O)N1CCN(C(=O)COc2ccccc2C(=O)Nc2ccccc2)CC1	14
CCCNC(=O)N(C)c1nncnc1C(=O)NC	13
COc1ccc(C(=O)NNC(=O)Nc2ccc(Cl)cc2)cc1	5
CN1CCN(C(=S)Nc2cccc(S(=O)(=O)N(C)C)c2)CC1	5
Cc1cc(C)c(NS(=O)(=O)c2cccc3cccnc23)c(C)c1	10
COc1cccc(NC(=O)NC(C)C2CC3CCC2C3)c1 (stereo not drawn)	20
COC(=O)c1ccc(CN2C(=O)NC3(CCC(C)CC3)C2=O)cc1 (stereo not drawn)	8
Cc1ccc(N=C2NC(=O)/C(=C\c3cccs3)S2)cc1C	9
Cc1ccc(-c2ccc(S(=O)(=O)NCc3ccco3)cc2)cc1	20
C/C(=N\NC(=O)C(c1ccccc1)c1ccccc1)c1ccccn1	19
CCOCc1c(C(=O)NC2=Nc3ccccc3NC(CC)=C2C(=O)OCC)oc2ccccc12	14
O=C(NC1CCCCCC1)C(=O)NC1CCCC1	8
COc1ccc(-c2nnc(SCC(=O)Nc3ncc(C(F)(F)F)cc3Cl)n2CC(C)C)cc1	11

Shown bar-delimited: three of the compounds above
Molecule | Calb biofilm kill
Cc1ccc(N=C2NC(=O)/C(=C\c3cccs3)S2)cc1C | 9
COC(=O)c1ccc(CN2C(=O)NC3(CCC(C)CC3)C2=O)cc1 (stereo not drawn) | 8
CCCNC(=O)N1CCCC(C(N)=O)C1 (stereo not drawn) | 16

3 compounds already listed, ordered by molecular weight, high to low:
SMILES	Calb biofilm kill
COc1ccc(-c2nnc(SCC(=O)Nc3ncc(C(F)(F)F)cc3Cl)n2CC(C)C)cc1	11
Cc1cc(C)c(NS(=O)(=O)c2cccc3cccnc23)c(C)c1	10
COc1ccc(C(=O)NNC(=O)Nc2ccc(Cl)cc2)cc1	5

The listing continues:
SMILES	Calb biofilm kill
CC(=O)NC1=NN(C(C)=O)C(C)(CCS(=O)(=O)c2ccc(Br)cc2)S1 (stereo not drawn)	16
O=C(/C=C/c1ccc(F)cc1)NC(=S)NC1CCCCC1	11
COc1cc(NC(=O)N[C@@H](CCSC)C(=O)O)cc(OC)c1	20
CC(=O)c1ccc(Nc2cc(C)nc3c(C)cccc23)cc1	24
O=C(N/N=C/c1cccc([N+](=O)[O-])c1)c1ccc(CN2CCOCC2)cc1	10
O=C(CCC1CCCC1)Nc1cccn(Cc2ccccc2Br)c1=O	13
Cc1ccc(-c2nn(-c3cccc(F)c3)cc2CN2CCN(c3ccccn3)CC2)o1	13
CCc1ccc2[nH]c(=O)c(CN(CC3CCCO3)C(=S)NCc3ccco3)cc2c1 (stereo not drawn)	11
Cc1nnnn1CC(=O)Nc1ccccc1[N+](=O)[O-]	19
O=C(COC(=O)c1cc(Cl)ccc1[N+](=O)[O-])Nc1cccc2ccccc12	8
COCCN(C(=O)COc1ccc(Cl)cc1)c1nnc(-c2cccnc2)s1	6
COc1ccc(/C=C/C(=O)O)cc1S(=O)(=O)N1CCCCC1	15
CCOc1ccc(NC(=O)CC2Nc3ccccc3NC2=O)cc1 (stereo not drawn)	4
Clc1ccc(-c2cn(-c3ccccc3)c3[n+]2CCS3)cc1	11
CC(C)(C)NC(=O)NC(=O)CN1CCCCCCC1	2
COc1ccc(Cl)cc1NC(=O)C(C)N(C)Cc1cccc(Cl)c1Cl (stereo not drawn)	26
O=C(c1ccco1)N1CCN(c2ccnc3cc(Cl)ccc23)CC1	4
Fc1ccc(F)c(C2=NNC(=Nc3ccccc3F)SC2)c1	13
CCCNC(=O)C1CCN(S(=O)(=O)c2cccs2)CC1	2
Cc1nc2c(C(=O)NCCC(C)C)c[nH]n2c(=O)c1Cl	15
CCCN(Cc1cc2cc(OC)ccc2[nH]c1=O)C(=O)c1ccco1	9
CC1(c2ccc(Cl)cc2)NC(=S)N2C1NC(=S)N2c1ccccc1 (stereo not drawn)	21
COc1ccc(NC(=O)Cn2nnc(C(=O)NCc3ccccc3)c2N)c(OC)c1	11
O=C(CSc1ccc2nnc(-c3ccc(F)cc3)n2n1)N1CCCc2ccccc21	6
COc1ccc(C2CC(c3ccc(Cl)cc3)Nc3nc(NC(=O)c4ccco4)nn32)cc1 (stereo not drawn)	14
Cc1ccc(C(=O)CC(=O)COc2ccc(Cl)cc2C)cc1	12
Cc1cc(N/N=C/c2ccco2)c2ccccc2n1	10
COC(=O)C(C(=O)OC)C(c1ccccc1)C(C(=O)c1ccccc1)[N+](=O)[O-] (stereo not drawn)	18
COc1ccc(-c2nc(NC(=O)C3=NN(c4cccc(C)c4)C(=O)CC3)sc2C)cc1	21
Cc1ccc(OCCN2C(=O)S/C(=C\c3ccc(C)o3)C2=O)cc1	10
O=C(CCC1CCCN(C(=O)c2ccco2)C1)NCc1ccccc1F (stereo not drawn)	8
CC(/C=C1\SC(=S)N(CC(=O)O)C1=O)=C\c1ccccc1	13
CCN(CC)c1ccc(NC(=O)c2ccc(=O)[nH]c2)cc1S(=O)(=O)Nc1ccccc1OC	17
COc1ccc(Nc2nnc(SCc3cn4c(C)cccc4n3)s2)cc1	1
CCOc1ccc(CN2CCN(S(=O)(=O)c3ccc(NC(C)=O)cc3)CC2)cc1	9
COc1nc(Cl)cn(-c2ccc(Cl)cc2)c1=O	12
Cc1nc2c(c3c1[nH]c1ccccc13)C(O)CC(C)(C)C2 (stereo not drawn)	6
COc1cccc(OC)c1OCCCCn1cnc2ccccc2c1=O	10
COc1ccc(-c2nc(-c3cccc(C)c3)no2)cc1OC	8
C/C(=N\Nc1cccc(C(=O)O)c1)c1ccc(Cl)s1	8
O=c1cc(N2CCCCC2)c2ccccc2o1	13
CNc1ccc(Br)cc(C(=O)/C=C/c2cccc(Cl)c2Cl)c1=O	0
c1ccc(-n2ncc3c(NCc4ccc5c(c4)OCO5)ncnc32)cc1	7
CCOC(=O)c1cccc(NC(=O)c2cncc(Br)c2)c1	10
CCCCc1c(C)nc2ccc(C)cc2c1SCCC(=O)O	4
CCOc1cccc(/C=C2\NC(=S)N(c3ccccc3)C2=O)c1O	13
COc1cccc(/C=N/Nc2ncnc3c2ncn3Cc2ccccc2)c1O	15
COCC(=O)N(Cc1nc2sc(C)c(C)c2c(=O)[nH]1)C1CCCCC1	12
Cc1nc2ccccc2n1CC(=O)N/N=C/c1cccs1	17
C=CCc1cc(/C=C2/NC(=O)NC2=O)cc(OCC)c1O	3
NC(=O)/C(=C/c1cccnc1)NC(=O)c1ccccc1	35
CCC(CC)N1CCN(CC2CC=CCC2)CC1 (stereo not drawn)	9
O=S(=O)(c1ccc(-c2ccon2)s1)N1CCOCC1	23
CCn1c(C)nc2cc(S(=O)(=O)Nc3ccc(C)cc3)ccc21	0
N#C/C(=C\c1cccs1)c1nc2ccccc2[nH]1	12
COc1ccc(NC(=S)Nc2ncccc2C)cc1OC	5
Cc1cccc(OCc2nnc(SCC(=O)Nc3ccc(C)c(C)c3)o2)c1	10
Cc1ccc(NC(=O)Cc2cn(C)c3ccccc23)cc1F	17
COc1ccc(CCNC(=S)NC(=O)c2cc(OC)c(OC)c(OC)c2)cc1OC	7
Nc1nc(-c2ccccc2)c(N=Nc2cccnc2)s1	13

Next records:
SMILES	Calb biofilm kill
O=C(CSCc1ccc(C(=O)O)cc1)Nc1ccc2ccccc2c1	4
Cc1ccc2c(c1)C1CN(C)CCC1N2Sc1ccccc1[N+](=O)[O-] (stereo not drawn)	7
Cc1ccc(-c2nn(C)c(=O)c3ccccc23)cc1CN1CCCCC1	30
CCOC(=O)N1CCC(=NNC(=O)c2ccc(O)cc2)CC1	5
COc1ccc(S(=O)(=O)N2CCN(CCC(=O)Nc3ccc(F)cc3)CC2)cc1	21
COc1ccccc1NS(=O)(=O)c1cc(NC(C)=O)ccc1N1CCCCC1	14
CCn1c(CSCc2c(Cl)cccc2Cl)n[nH]c1=S	-9
CC(=O)Nc1ccccc1C(=O)N1CCN(Cc2ccccc2)CC1	11
O=c1nc(N/N=C/c2c[nH]c3ccccc23)cn[nH]1	9
Cc1ccc(NC(=O)c2noc(C(C)C)c2[N+](=O)[O-])cc1	8
C#CCOCCOCCOCCNc1nc(N2CCN(C(=O)[C@H](Cc3ccc(O)cc3)n3cc([C@@H](N)C(C)CC)nn3)CC2)nc(N2CCN(C(=O)[C@H](Cc3cc4ccccc4[nH]3)n3cc([C@@H](N)CC(C)C)nn3)CC2)n1 (stereo partly drawn)	-2
CC(=O)NS(=O)(=O)c1ccc(NC(=S)NC(=O)COc2ccccc2C)cc1	10
O=C1C(c2ccnc3ccccc23)=C(O)c2ccccc21	3
Cc1ccc(S(=O)(=O)Oc2ccc(C3C4=C(CCCC4=O)N(CCC(=O)O)C4=C3C(=O)CCC4)cc2Cl)cc1	16
Cn1c(SCC(=O)C(C)(C)C)nnc1-c1ccc(F)cc1	8

Another view of part of the listing above:
molecule: CCOC(=O)N1CCC(=NNC(=O)c2ccc(O)cc2)CC1
  Calb biofilm kill: 5

molecule: COc1ccc(S(=O)(=O)N2CCN(CCC(=O)Nc3ccc(F)cc3)CC2)cc1
  Calb biofilm kill: 21

molecule: COc1ccccc1NS(=O)(=O)c1cc(NC(C)=O)ccc1N1CCCCC1
  Calb biofilm kill: 14

(further entries)
SMILES	Calb biofilm kill
COc1ccc(C(=O)NC2(C(F)(F)F)NC(=O)N(CCCc3ccccc3)C2=O)cc1OC (stereo not drawn)	14
COc1ccc(C(=O)N2CCn3c(C)ccc3C2C)cc1 (stereo not drawn)	0
COCCN1C(=O)/C(=C/c2ccc(Oc3ccc([N+](=O)[O-])cn3)c(OC)c2)SC1=Nc1ccccc1	10
Cc1ccc(/C=C2/NC(=O)N(Cc3ccc(Br)cc3)C2=O)o1	12
COc1ccc(-c2cc3nc(C)n(N)c(=O)c3s2)cc1	25
Cn1ccc(CC(=O)N2CCC(N3CCC(C(=O)N4CCCC4)CC3)CC2)c1	28
CCCC1C(=O)N(Cc2ccccc2)C(=O)CC1C (stereo not drawn)	16
C=CCn1c(SCC(=O)Nc2nc(C)cs2)nnc1C(C)NC(=O)c1ccccc1Cl (stereo not drawn)	10
CN1CCN(CC#CCC(O)(c2ccccc2)c2ccccc2)CC1	23
NNC(=O)c1ccc(COc2cccc3ccccc23)cc1	8
CCO[C@@H]1OC(C(=O)N2CCN(Cc3ccc4c(c3)OCO4)CC2)=C[C@H](C2CCCCC2)[C@H]1CCCO	5
CC1=CC(C)(C)N=C(Nc2nc(C)c3cc(C)cc(C)c3n2)N1	11
O=C1N/C(=N/N=C/c2ccco2)SC1Cc1ccccc1 (stereo not drawn)	13
Cc1cccc(NC(=S)N/N=C/c2ccc3c(c2)OCO3)c1	8
CCOC(=O)C1(CCCc2ccccc2)CCN(Cc2cn(CC)nc2C)CC1	14
CC(=O)N1CCN(CC(=O)O)CC1	11
O=C(/C=C/c1ccccc1)Nn1c(-c2cccs2)nc2ccccc2c1=O	19
COc1cc(/C=N/NC(=O)/C(=C/c2ccccc2)CCO)ccc1O	7
CC(=O)c1ccc(S(=O)(=O)N2CCCCC2C(=O)O)cc1 (stereo not drawn)	-6
C[C@H](NC(=O)c1[nH]cnc1C(=O)Nc1ccc(Cl)cc1)C(=O)OC(C)(C)C	18
Cc1ccc(S(=O)(=O)N(C)C)cc1NC(=O)COC(=O)C1COc2ccccc2O1 (stereo not drawn)	8
COc1ccc(/C=C/C(=O)Nc2cc(=O)n(C)c(=O)n2C)cc1	-12
CCc1ccc(S(=O)(=O)NC(=S)Nc2ccccc2)cc1	14
COC(=O)Nc1nc2ccc(Sc3ccccc3)cc2[nH]1	-5
CNC(=S)N/N=C/c1cn(CCOc2ccccc2OC)c2ccccc12	16
O=C(/C(=C/c1ccncc1)n1ccnc1)c1ccc(Cl)cc1Cl	21
CC(=O)Nc1ccc(Br)c(Cl)c1	18
CC(=O)c1cccc(S(=O)(=O)Nc2ccc3nc(C)sc3c2)c1	9
COC(C(=O)Nc1ccc(S(=O)(=O)Nc2cccc3ccccc23)cc1)c1ccccc1 (stereo not drawn)	12
CCOC(=O)C(C(C)C)C(N)Cc1ccc(F)cc1 (stereo not drawn)	18

These rows are one share of the data; rates above refer to the full screens.
